Source: PubChem BioAssay (Fisher Drug Discovery Resource Center)
NPYLR7 agonist = mosquito NPYLR7 agonism; HEK293T NPYLR7/Galpha15, GCaMP6s calcium fluorescence; activation, % at 10 µM; actives 0.15% (n = 270,000); in the data active = activation above about 40%;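 note: 0% = vehicle and 100% = reference agonist at the receptor; some compounds past the cut are filed as inactive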
NPYLR7 agonist max-min = further read-out of NPYLR7 agonist, marked with its call; activation, %; measured here: Max-Min RFU normalised activation; some inactives read as strong as hits;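 span of the calcium signal over five minutes; 0% = vehicle and 100% = native peptide agonist; compound fluorescence can raise it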
* hit, by the source's call.

SMILES	NPYLR7 agonist	NPYLR7 agonist max-min
Cc1ccc(NC(=O)N2CCN(C(C(=O)N3CCSCC3)C3CCCC3)CC2)cc1 (stereo not given)	2	12
Cc1cccc(C)c1NC(=O)c1ccc(Nc2nc(-c3ccccc3)c3cc(Br)ccc3n2)cc1	9	12
CCNC(=O)NC(=O)CSc1nnc(NCc2ccc(OC)cc2)s1	2	7
CC(C)(CC(=O)O)CC(=O)N1CCSC1	-6	-15
CC(C)CN1C(=O)/C(=C/c2ccc(N(C)C)cc2)N(C)C1=S	23	17
CN1CCN(C(=O)c2cc(COc3cncc(Cl)c3)on2)CC1c1ccccc1 (stereo not given)	-1	-3
CCN1CCCC1Cn1c(=O)n(CC2CCCCO2)c2cc(C(=O)O)ccc21 (stereo not given)	13	11
CCc1nc2ccc(C(=O)Nc3ccc(NC(C)=O)cc3)cn2c1N(CC)CC(=O)N(C)C	-1	28
COc1cc(CC2(CCC(=O)N(Cc3c(C)nn(C)c3C)C(C)C)CCC(=O)N2)ccc1F (stereo not given)	9	5
CCCCN(CC(=O)N1CCc2sccc2C1c1ccc(F)cc1)C(=O)c1cccc(Br)c1 (stereo not given)	12	26
O=C(C1CCCCC1)N1CCN(c2ccc(-n3cccn3)nn2)CC1	8	6
CN(Cc1ccc(O)cc1)C(=O)Cc1cc(Cl)c2c(c1)OCCCO2	-2	-3
CCC(=O)[C@@]1(C)[C@H](C)C[C@H]2[C@@H]3CCC4=CC(=O)C=C[C@]4(C)[C@H]3[C@@H](O)C[C@@]21C	10	-1
OC(COc1ccc2ccccc2c1)CN1CCCCCC1 (stereo not given)	3	0
COc1ccc(-c2noc(C3CCN(C(=O)c4c(F)cccc4Cl)CC3)n2)cc1	16	6
Cc1ccc(N2C(=O)C(C)S/C2=C(\C#N)C(N)=O)cc1 (stereo not given)	-6	-7
Cc1ccc(C(C)(C)C)cc1S(=O)(=O)N1CC(C)OC(C)C1 (stereo not given)	1	1
Cn1cnnc1CNC(=O)Cc1cc(Cl)ccc1Cl	8	5
CCn1nc(CC(C)C)cc1C(=O)NC1C=CS(=O)(=O)C1 (stereo not given)	-2	-5
CC(C)c1ccccc1N1C(=O)CSC1c1ccccc1NC(=O)COc1ccccc1 (stereo not given)	-2	-1
COc1ccc(C(=O)NCC(=O)N=Nc2c(O)[nH]c3ccc([N+](=O)[O-])cc23)cc1	-1	-8
CCN(CC(=O)Nc1ccc(OC)cc1)CC(=O)N1CCc2ccccc21	8	6
Cc1nc(CCNC(=O)Cc2nc3ccc(Cl)cc3[nH]2)sc1C	15	2
CC(C)(C)CC(=O)Nc1nc(-c2cccnc2)cs1	-4	-5
Nc1cc(-c2cccc(Cl)c2)nn1-c1ccc(C(=O)NCCc2cccc(F)c2)cc1	-9	-15
COc1ccc(/C(=N/O)c2ccccc2NC(=O)c2ccc(C)cc2)cc1	0	0
N#Cc1cccc(S(=O)(=O)NC2CCSc3ccc(Cl)cc32)c1 (stereo not given)	2	1
CN=c1scc(-c2ccc(Cl)cc2Cl)n1N=Cc1ccsc1	-3	-10
CC1=Nc2ccccc2N=C(N)C1c1ccccc1 (stereo not given)	7	7
O=C(O)C1CCC(Cn2c(SCc3cc(=O)n4ccccc4n3)nc3ccsc3c2=O)CC1 (stereo not given)	5	4
Cc1nc2ccc(C(=O)NCc3cccs3)cn2c1N(C)C(=O)CCc1ccccc1	20	16
N#Cc1c(NC(=O)CSc2nnnn2C2CCCC2)sc2c1CCC2	8	14
COc1ccc(-c2noc(C3CCN(C(=O)c4c(F)c(F)c(F)c(F)c4F)CC3)n2)cc1	22	9
Cc1ccc(NC(=S)NN=C2CC3CC=CC23)c(C)c1 (stereo not given)	1	3
CCOc1cc2c(cc1CNC(CN1CCOCC1)c1ccc(C)cc1)OC(C)C2 (stereo not given)	2	-2
O=Cc1cc(Br)c(Sc2nnc(-c3ccccc3)o2)o1	8	27
CCc1nccc(-c2c(-c3ccccc3)ncn2C2CC(=O)N(CC)C2)n1 (stereo not given)	3	-1
COc1ccccc1-c1nc2c(Cl)cc(Cl)cn2c1NC1CCCCC1	17	15
CCN(C1=NS(=O)(=O)c2ccccc21)N(CC)S(=O)(=O)c1ccc(C)cc1	-15	-22
O=C(NCc1cccnc1-n1ccnc1)C1CCCc2c1[nH]c1ccccc21 (stereo not given)	28	16
CC1(C)CC2CC(C)(CN2C(=O)c2cnn3c2NC(c2cccs2)CC3C(F)(F)F)C1 (stereo not given)	-11	-15
CN(Cc1ccc(F)cc1F)Cn1nc(C2CC2)n(C2CC2)c1=S	-3	-5
O=C(Nc1ccc(SCCN2CCOCC2)nn1)c1ccccc1	2	3
CC(NC(=O)NCCN(C)C(=O)OC(C)(C)C)c1ccc(C#N)cc1 (stereo not given)	-6	-6
COc1ccc(CN(C(=O)NC(C)(C)C)C2CC2)cc1OCc1nc(CO)cs1	12	25

Taken from above.
CN(Cc1ccc(F)cc1F)Cn1nc(C2CC2)n(C2CC2)c1=S – NPYLR7 agonist: -3
COc1ccc(-c2noc(C3CCN(C(=O)c4c(F)c(F)c(F)c(F)c4F)CC3)n2)cc1 – NPYLR7 agonist: 22
N#Cc1c(NC(=O)CSc2nnnn2C2CCCC2)sc2c1CCC2 – NPYLR7 agonist: 8
Cc1nc2ccc(C(=O)NCc3cccs3)cn2c1N(C)C(=O)CCc1ccccc1 – NPYLR7 agonist: 20
Cc1ccc(NC(=S)NN=C2CC3CC=CC23)c(C)c1 (stereo not given) – NPYLR7 agonist max-min: 3
CC(NC(=O)NCCN(C)C(=O)OC(C)(C)C)c1ccc(C#N)cc1 (stereo not given) – NPYLR7 agonist max-min: -6
O=C(Nc1ccc(SCCN2CCOCC2)nn1)c1ccccc1 – NPYLR7 agonist: 2

Arranged by SMILES length (low to high): part of the list above
SMILES	NPYLR7 agonist	NPYLR7 agonist max-min
N#Cc1c(NC(=O)CSc2nnnn2C2CCCC2)sc2c1CCC2	8	14
CC(NC(=O)NCCN(C)C(=O)OC(C)(C)C)c1ccc(C#N)cc1 (stereo not given)	-6	-6
CCN(C1=NS(=O)(=O)c2ccccc21)N(CC)S(=O)(=O)c1ccc(C)cc1	-15	-22
CC1(C)CC2CC(C)(CN2C(=O)c2cnn3c2NC(c2cccs2)CC3C(F)(F)F)C1 (stereo not given)	-11	-15

The list continues:
SMILES	NPYLR7 agonist	NPYLR7 agonist max-min
CCn1c(SCC(=O)C(C)(C)C)nnc1-c1cc(-c2ccccc2)nc2ccccc12	-1	6
COc1ccc(-c2nnc(NC(=O)C(F)(F)F)s2)cc1OC	-4	-9
O=C(NCc1ccc2c(c1)OCO2)c1cccnc1N1CCN(C(=O)COc2cccc(Cl)c2)CC1	19	6
C=C(/C=C1\SCCN1CC)C1SC(=S)N(CC)C1=O (stereo not given)	-6	-10
CC(C)C[C@H]1CN(C(=O)c2ccc(=O)n(C)c2)CC[C@@]1(C)O	-4	-4
COc1cccc(C2CC(c3cccc(C)c3)=NN2C(=O)CN2CCOCC2)c1 (stereo not given)	21	29
CC(=O)c1cn(Cc2ccccc2C#N)nc1C	-2	-2
Cc1c(C(=O)NC2CCCCC2)sc2nc3ccc(N)cc3n12	-8	-14
COc1cccc2c1OCC(c1nc(C3CC3)nn1-c1ccccn1)C2 (stereo not given)	6	-10
C=CCOc1ccc(C=NN2CCOCC2)cc1OC	-1	22
CCc1nc(C)c(CC(=O)N2CCCC(N3CCCC3=O)C2)c(=O)[nH]1 (stereo not given)	20	6
COC(=O)c1c(C)c(C(=O)C(C)N(Cc2ccco2)S(=O)(=O)c2ccc(Br)cc2)c(C)n1C (stereo not given)	-12	-5
O=C(Cn1cc(OCc2ccccc2)c(=O)cc1CO)N1CCOCC1	2	0
N#CNc1nc(N2CCOCC2)nc(N2CCOCC2)n1	2	1
Cc1ccsc1C(=O)N1CCC1(C)C(=O)NS(=O)(=O)c1ccc(Cl)cc1 (stereo not given)	0	-2

An excerpt of these results, in markdown:
| Molecule | NPYLR7 agonist | NPYLR7 agonist max-min |
| --- | --- | --- |
| C=C(/C=C1\SCCN1CC)C1SC(=S)N(CC)C1=O (stereo not given) | -6 | -10 |
| C=CCOc1ccc(C=NN2CCOCC2)cc1OC | -1 | 22 |

Additional records follow:
SMILES	NPYLR7 agonist	NPYLR7 agonist max-min
O=C(NN=Cc1ccco1)C12CC3CC(CC(C3)C1)C2	5	7
CC(C)C(=O)N1CCC1(C)C(=O)Nc1ccc(-n2cncn2)cc1 (stereo not given)	-5	-5
Cc1nonc1CN(C)C(=O)CC1C(=O)NCCN1Cc1cccc(C(F)(F)F)c1 (stereo not given)	-1	-4
O=C(c1ccc(-c2ccccc2)cc1)C1CCCN(Cc2cccnc2)C1 (stereo not given)	0	-1
C=c1cc(C)n(CC(=O)Nc2ccc(C)cc2C)c(=O)c1=C1N=C(c2ccc(OC)cc2)NO1	-3	-7
COc1ccc(C)cc1Nc1ncnc(N)c1[N+](=O)[O-]	4	5
CCOC(=O)CN1N=C(c2ccc(Cl)cc2)Cn2c1nc1c2c(=O)n(C)c(=O)n1C	4	0
CCCCn1cnc2cc(C)c(C)cc21	1	7
CN1C(=O)c2ccccc2C(C(=O)Nc2ccc3c(c2)OCO3)C1c1cn(C)c2ccccc12 (stereo not given)	-5	-7
CCOC(=O)Cn1c(O)c(N=NC(=O)CNC(=O)c2ccc(Br)cc2)c2ccccc21	1	9
O=C(Nc1ccccc1)c1cc2n(n1)CCN(Cc1cnc[nH]1)C2	-5	-11
CCCOC(=O)C1=C(C)NC2=C(C(=O)CC(c3ccc(OC)cc3)C2)C1c1ccc(OC)cc1OC (stereo not given)	-7	-11
COc1cccc(-n2cc(CN(C)Cc3cc(F)ccc3F)cn2)c1	6	3
CCCN(C(=O)c1ccoc1)C1CC(OCC)C12CCCCC2 (stereo not given)	0	-1
O=C(NC[C@@H]1CCNC[C@H]1O)C12CC3CC(C1)CC(c1ccccc1)(C3)C2	6	-2

Molecules shown so far that contain bromine, in the order listed:
SMILES	NPYLR7 agonist	NPYLR7 agonist max-min
Cc1cccc(C)c1NC(=O)c1ccc(Nc2nc(-c3ccccc3)c3cc(Br)ccc3n2)cc1	9	12
CCCCN(CC(=O)N1CCc2sccc2C1c1ccc(F)cc1)C(=O)c1cccc(Br)c1 (stereo not given)	12	26
O=Cc1cc(Br)c(Sc2nnc(-c3ccccc3)o2)o1	8	27
COC(=O)c1c(C)c(C(=O)C(C)N(Cc2ccco2)S(=O)(=O)c2ccc(Br)cc2)c(C)n1C (stereo not given)	-12	-5
CCOC(=O)Cn1c(O)c(N=NC(=O)CNC(=O)c2ccc(Br)cc2)c2ccccc21	1	9

Later entries.
SMILES	NPYLR7 agonist	NPYLR7 agonist max-min
COC(=O)c1ccc(CSc2nnc(CCc3c(C)[nH]c(=O)[nH]c3=O)o2)o1	-7	-12
Cc1ccccc1CCN1CCCC(CN(C)C(=O)Cn2nc3ccccc3n2)C1 (stereo not given)	21	8
CCOc1ccc(C(=O)c2cn(Cc3ccccc3OC)c3ccccc3c2=O)cc1	1	-4
COc1cccc(C2=NNC(=NC3CCCCC3C)SC2)c1 (stereo not given)	-7	-7
COc1ccc(CCNC(=O)c2csc(CSc3nnc(-c4ccncc4)n3-c3ccccc3F)n2)cc1OC	-11	-15
CC1(C(=O)NS(=O)(=O)c2ccccc2Cl)CCN1C(=O)CC1CC1 (stereo not given)	2	0
COC(=O)N1CC[C@@]2(C1)[C@H](O)CN(C)S2(=O)=O	4	6
CCNC(=O)Nc1ccc(-c2nc3cc(Cl)ccc3o2)cc1	2	7
CC(C)(O)C#Cc1ccc(-c2nccn2Cc2ccsc2)s1	0	-2
N#CCc1cccc(C(=O)Nc2ccc3c(c2)S(=O)(=O)C=C3)c1	-4	-4
CCCCN(Cc1cccn1Cc1ccc(Br)cc1)C(=O)CN(CCCC)C(=O)C1CC1	-4	-5
COc1ccc(S(=O)(=O)NCC2CCCN(C(=O)CCN3CCCO3)C2)cc1 (stereo not given)	11	3
COc1cccc(CSc2nc(Oc3ccc(Cl)cc3)cc(C(C)C)n2)c1	-2	-2
CC(CC(=O)c1cccs1)NC(=O)C(C)Cc1ccccc1F (stereo not given)	1	3
COc1ccc(-c2cnc3ncnn3c2N2CCCN(C(=O)c3cc(C(C)(C)C)oc3C)CC2)cc1	-9	-6
O=C(CN1C(=O)CSc2ccccc21)Nc1cccc(N2CCCC2=O)c1	12	11
COc1cc(N2CCC(=O)NCC2C)nc(OC)n1 (stereo not given)	21	10

These rows are one share of the data (hit frequency here may not be typical).
